# Compound activity deposited in PubChem BioAssay by National Center for Advancing Translational Sciences (NCATS).
# Sfp inh = qHTS Assay for Inhibitors of Bacillus subtilis Sfp phosphopantetheinyl transferase (PPTase); 4'-phosphopantetheinyl transferase ffp (Bacillus subtilis), Q9F4F7; Biochemical Sfp PPTase activity, qHTS; Potency, µM, inactives show max response, negative = inhibition, most hits filed as inhibitors; 3.5% of 310,000 active; AID 1490, 2009; active = well fitted inhibition curve with a large enough effect; inconclusive = small, poorly fitted or top-dose-only effect, or another doubt; inactive = no such curve, though single readings can be large or run the other way;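 also: the enzyme is Sfp with the accession as filed and its product quenches rhodamine fluorescence; potency is read from the fitted curve at half-maximal effect; 0% = enzyme reaction without inhibitor and -100% = no enzyme wells; top concentration of the series not given in the record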
#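 With Hepes-Na pH 7.6 buffer containing 10 mM MgCl2, Sfp (15 nM) modified BHQ-2-YbbR (12.5 uM) using rhodamine-CoA (5 uM). Two reads 30 minutes apart at 525/598 nm yielded each well's rate.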
# TRPV1 potentiator = HTS Assay for Compounds that Act as Potentiators of the Vanilloid Receptor 1. Transient receptor potential cation channel subfamily V member 1 (Homo sapiens), Q8NER1. TRPV1-expressing cells, Fluo-8 calcium influx, capsaicin EC20 potentiation; host cell line not named in the record; control for the full effect not named in the record. potentiation, % at 8.33 µM. 0.02% of 320,000 active. AID 540277, 2011; active means potentiation above 80%; inconclusive means 30% to 80%; inactive means below 30%; also: 0% is about no effect
#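 TRPV1-expressing cells were cultured overnight at 35.5C and loaded with Fluo-8 calcium dye for 40 to 90 min at room temperature. After a 10 s baseline, compound was added and calcium influx was read kinetically for 3 min (ex 480/em 520 nm).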
# Menin-MLL FL inh = qHTS Assay for Inhibitors Targeting the Menin-MLL Interaction in MLL Related Leukemias: Competition With Fluorescein Labeled MLL-derived Peptide | AID 1766, 2009 | 290,000 tested, under 10 active | Fluorescence polarization, fluorescein-MLL peptide displacement from menin | FP activity change, % at 61.4 µM; inconclusive = falling polarisation curve, or a change in total fluorescence; inactive = total fluorescence flat and polarisation flat or rising; no compound was filed as active; the % refers to the polarisation; negative = inhibition;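 also: % of control where 0% means no effect; inhibitors lower the polarisation; unlabelled MLL peptide was the positive control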
# ClpP mod = qHTS Assay for Activators of ClpP; ATP-dependent Clp protease proteolytic subunit (Bacillus subtilis (strain 168)), P80244; 1.9% of 340,000 active; Potency, µM (series often up to 57.5 µM), without a hit: at the highest dose activity change, negative = active; purified B. subtilis ClpP, FRET peptide cleavage, 20 min; AID 651965, 2013; active = well fitted falling curve with a large enough effect; inconclusive = small, poorly fitted or top-dose-only effect; inactive = no such curve, though single readings can be large or run the other way; also: potency is read from the fitted curve at half-maximal effect; the source files actives as falling curves though it sought activators and does not explain the sign; nearly all actives have a fitted effect of over 65% in size; many hits overshoot -100%
# Target sequence (P80244 whole entry, looked up): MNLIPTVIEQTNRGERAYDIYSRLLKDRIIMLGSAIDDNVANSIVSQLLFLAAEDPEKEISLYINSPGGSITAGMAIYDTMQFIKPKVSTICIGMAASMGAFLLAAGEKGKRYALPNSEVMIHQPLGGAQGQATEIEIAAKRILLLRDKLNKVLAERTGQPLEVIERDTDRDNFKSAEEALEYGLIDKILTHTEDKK
#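 Buffer: 100 mM Tris/HCl pH8, 100 mM KCl, 0.05% low protease BSA, 2.5% glycerol, 0.01% Tween-20. ClpP 10 microg/mL final; 20 min RT; delta FRET normalized to ADEP and DMSO controls.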
# gsp antag = qHTS for Antagonists of gsp, the Etiologic Mutation Responsible for Fibrous Dysplasia/McCune-Albright Syndrome: qHTS; 0.4% of 340,000 active; AID 624288, 2012; Potency, µM (top dose mostly 76.9 µM), for inactives: at the top dose activity change, negative = inhibition, actives largely listed as inhibitors; gsp-mutant cells, cAMP HTRF, 30 min; control for the full effect not named in the record; active = falling curve of any shape with a large fitted effect; inconclusive = falling curve, mostly with a smaller effect; inactive = flat or rising curve; cell line not stated here;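 also: intracellular cAMP measured with PDE inhibitor Ro 20-1724 present during compound exposure; potency is read from the fitted curve at half-maximal effect; % is scaled to controls: 0 for no effect and ±100 for the full control effect; nearly all actives have a fitted effect of over 65% in size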
#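 Cells, 2000/well, grown 16–24 h in DMEM 10% FBS with 0.5 mg/ml G418, then compounds plus […] (300 uM addition stock), 30 min at 37C. cAMP read by HTRF (cAMP-d2 and anti-cAMP antibody-K in lysis buffer) after 30 min RT.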
# gsp ag = qHTS for Agonist of gsp, the Etiologic Mutation Responsible for Fibrous Dysplasia/McCune-Albright Syndrome: qHTS; 0.13% of 340,000 active; gsp mutant cells, cAMP HTRF, 30 min; control for the full effect not named in the record; Potency, µM (doses to about 76.9 µM), for inactives: top-dose activation (cAMP increase), hits mostly activators; active = well fitted activation curve with a large enough effect; inconclusive = small, poorly fitted or top-dose-only effect, or another doubt; inactive = no such curve, though single readings can be large or run the other way; cell line not stated here;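 also: phosphodiesterase inhibitor Ro 20-1724 added with compounds to block cAMP breakdown; potency is read from the fitted curve at half-maximal effect; nearly all actives have a fitted effect of over 60% in size; about a fifth of the inactives were tested at one dose only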
#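 Cells in DMEM/10% FBS with G418 were pretreated with compounds in DMSO plus […] (300 uM stock) for 30 min at 37C. cAMP was measured by HTRF (cAMP-d2 plus anti-cAMP antibody-K) after 30 min at room temperature.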
# D2 PAM = Beta-Arrestin HTS for Positive Allosteric Modulators of the Human D2 Dopamine Receptor: Potentiators. D(2) dopamine receptor (Homo sapiens), P14416. DiscoveRx D2 beta-arrestin cells, luminescence, 90 min; 100% = 57 uM dopamine signal. potentiation, % (no concentration beside the values). AID 624464, 2012. 0.23% of 360,000 active; active = potentiation of 50% or more; inconclusive = 30% to 50%; inactive = 30% or less;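 also: compound concentration not given in the record; tested on top of an EC20 dose of dopamine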
# Target sequence (P14416 whole entry, looked up): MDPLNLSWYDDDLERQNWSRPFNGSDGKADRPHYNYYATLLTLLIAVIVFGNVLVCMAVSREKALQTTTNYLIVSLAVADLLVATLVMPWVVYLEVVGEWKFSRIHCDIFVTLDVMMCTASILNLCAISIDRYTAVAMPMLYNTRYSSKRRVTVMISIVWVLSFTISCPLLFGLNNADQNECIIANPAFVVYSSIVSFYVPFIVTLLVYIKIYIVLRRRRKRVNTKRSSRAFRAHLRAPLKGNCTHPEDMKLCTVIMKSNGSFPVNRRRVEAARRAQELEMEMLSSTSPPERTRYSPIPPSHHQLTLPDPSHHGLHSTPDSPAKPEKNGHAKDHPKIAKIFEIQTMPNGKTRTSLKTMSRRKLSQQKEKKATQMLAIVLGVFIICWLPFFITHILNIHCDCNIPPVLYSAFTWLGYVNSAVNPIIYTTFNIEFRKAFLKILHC
#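 PathHunter D2 cells, attached overnight at 37 deg C, received compound in DMSO plus dopamine at EC20 (50 nM final) for 90 min at 37 deg C. Beta-arrestin recruitment was read as luminescence after 1 h with detection reagent at ambient temperature.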
# * hit, by the source's call; u = inconclusive; x = no result given; [ ] = remark or other dose.
# Below each compound – Sfp inh, TRPV1 potentiator, Menin-MLL FL inh, ClpP mod, gsp antag, gsp ag, D2 PAM
- CNc1nc2[nH]c(=O)c3c(c2s1)OC(N)=C(C#N)C3c1cccc(F)c1 (stereo unspecified)
→ 79µM*, -23, u, -5.1%, -10%, 12%, -27
- COC(=O)CC1C(=O)NCCN1C(=O)CSc1nnnn1-c1ccc(OC)cc1 (stereo unspecified)
→ 16%, 28, 2.7, 0.3%, 5%, 24%, 27
- O=C(Nc1ccc(OC(F)F)c(Cl)c1)C(c1ccccc1)c1ccccc1
→ 30%, -8, 0.2, -3.1%, -9%, u, -1
- O=C(NCC(c1cccs1)N1CCOCC1)c1ccccc1NS(=O)(=O)c1ccc(Cl)c([N+](=O)[O-])c1 (stereo unspecified)
→ 20%, 4, 1.1, -0.9%, u, -59%[inhibitor], -7
- Cn1c(C(=O)N2CCN(c3ccc(F)cc3)CC2)cc2ccccc21
→ 0%, 1, -0.7, -2.2%, 0%, -34%[inhibitor], -1
- O=C(/C=C/c1ccccc1)OCC(=O)N1CCCC1
→ x, -4, x, 0.5%, 5%, -44%[inhibitor], -4
- C=CCC1(CC=C)CCCN1C(=O)CC1C(=O)NCCN1Cc1cccc(OC)c1OC (stereo unspecified)
→ 19%, 2, -0.7, x, 6%, -2%[15.4 µM], -4
- Cc1ccc(Nc2ccc(C(N)=O)cc2[N+](=O)[O-])cc1C
→ 1%, 11, 2.9, -0.5%, -12%, 4%, -8
- C=C1CC(C(=O)N/N=C/c2ccc(O)cc2)C1
→ 7%, -2, 2.2, 11µM*, 13%, -4%, -12
- O=C(O)c1ccc(Cl)c2c1C1C=CCC1C(c1ccccn1)N2 (stereo unspecified)
→ 3.5µM*, -1, u, x, x, x, x
- Cn1c(SCC(N)=O)nnc1-c1ccccc1
→ 3%, -1, -0.1, 0.3%, 7%, -15%, -5
- COc1ccccc1CCNC(=O)CSCC(=O)Nc1ccccc1F
→ x, x, x, 1.0%, x, -3%, -13
- Cc1ccc(C)c(S(=O)(=O)Nc2ccccc2C(=O)Nc2cc(C)on2)c1
→ 7%, 9, -0.8, 16µM*, u, -2%, 2
- O=C(CCN1CCCCC1)N1CCc2c([nH]c3ccccc23)C1c1cccnc1 (stereo unspecified)
→ x, x, x, 1.6%, 14%, -8%, -20
- Cc1ccc(S(=O)(=O)Nc2cccc(Oc3cnccn3)c2)cc1
→ 2%, -16, 2.9, x, -19%, 11%[15.4 µM], -4
- O=[N+]([O-])c1ccccc1/C=N/NC1=NCCCCC1
→ -9%, 1, -1.6, 1.1%, 5%, -10%, -34
- COc1ccccc1C(=O)NC(CCSC)C(=O)NNC(=O)C(C)Oc1ccccc1F (stereo unspecified)
→ x, -1, x, 0.5%, 7%, u, -7
- COCCCNC(=O)C[C@H]1C[C@H](C(=O)N2CCOCC2)[C@@]2(CCC3CCCC3)c3[nH]c4cc(-c5ccco5)ccc4c3CCN2C1=O
→ x, x, x, 4.4%, -7%, x, -7
- O=S(=O)(CC12C3C4C5C1C2C(Br)(C43)C51OCCO1)c1ccccc1 (stereo unspecified)
→ 6%, -9, x, -1.3%, 8%, -4%, -11
- CCN1CCN(C(=O)c2c(-c3ccccc3)noc2C)CC1
→ 11%, 21, 5.0, x, -4%, -5%, 3
- Cc1cc(NC(=O)COC(=O)c2cc(S(=O)(=O)N(C)C)ccc2Cl)no1
→ x, -5, x, -0.7%, -10%, -9%, -1
- Cc1c(C)n(CCc2c[nH]c3ccccc23)ccc1=O
→ 15%, -6, -0.3, x, 3%, -1%[15.4 µM], -9
- CC(C)(C)n1nc2c(c1NC(=O)COc1ccc(Cl)cc1)CS(=O)(=O)C2
→ 11%, 1, 0.4, x, 7%, 15%[15.4 µM], -6
- CCc1cccc(NS(=O)(=O)c2c(C)n[nH]c2C)c1
→ 16%, -1, 0.3, 0.5%, -14%, -20%, 4
- Cc1[nH]c2ccccc2c1N=Nc1c(C)n(C)n(-c2ccccc2)c1=O
→ 1%, 1, -12, x, -6%, 18%, -8
- CCn1c(C(O)c2ccccc2)nc2ccccc21 (stereo unspecified)
→ 11%, -18, -7.0, 0.8%, -3%, 1%, -17
- Cc1cc(S(=O)(=O)NCc2ccccc2)ccc1OCC(=O)NCc1ccncc1
→ -28%, -2, x, u, -11%, -4%[15.4 µM], -21
- O=P(c1ccccc1)(c1ccccc1)C(O)c1ccc(Br)cc1 (stereo unspecified)
→ 5%, 2, -4.6, x, -14%, 30%, -2
- CCCC(=O)Nc1ccc(Br)cn1
→ 7%, -16, 0.2, -0.2%, 1%, 0%, 15
- CC(C)CCN1C(=O)c2ccc(C(=O)Nc3ccccc3C(=O)O)cc2C1=O
→ 10%, 6, -5.4, -1.8%, u, 15%, 7

# Brought forward from above: five compounds; new compounds follow.
# Below each compound – Sfp inh, TRPV1 potentiator, Menin-MLL FL inh, ClpP mod, gsp antag, gsp ag, D2 PAM
- CCn1c(C(O)c2ccccc2)nc2ccccc21 (stereo unspecified)
→ 11%, -18, -7.0, 0.8%, -3%, 1%, -17
- Cc1cc(S(=O)(=O)NCc2ccccc2)ccc1OCC(=O)NCc1ccncc1
→ -28%, -2, x, u, -11%, -4%[15.4 µM], -21
- O=P(c1ccccc1)(c1ccccc1)C(O)c1ccc(Br)cc1 (stereo unspecified)
→ 5%, 2, -4.6, x, -14%, 30%, -2
- CCCC(=O)Nc1ccc(Br)cn1
→ 7%, -16, 0.2, -0.2%, 1%, 0%, 15
- CC(C)CCN1C(=O)c2ccc(C(=O)Nc3ccccc3C(=O)O)cc2C1=O
→ 10%, 6, -5.4, -1.8%, u, 15%, 7
- CC(C)C[C@@H](CN1CCC[C@@H]1CN1C(=O)C(=O)NC[C@@H]1Cc1ccccc1)N1C[C@H](Cc2ccc(O)cc2)N(CC2CCCCC2)C(=O)C1=O
→ x, x, x, 1.7%, -20%, x, -3
- COCCCNC(=O)C1CC(=O)N(c2ccc(C)cc2)C1 (stereo unspecified)
→ 18%, 9, 5.2, -0.2%, 14%, -48%[inhibitor], -2
- CC(C)(C)OC(=O)C[C@@H]1C/C=C\C[C@H](CC(=O)N(CCO)Cc2ccccc2)C(=O)N[C@H](Cc2ccccc2)COC1=O
→ x, x, x, -0.6%, -16%, x, 6
- CCN(CC(=O)Nc1ccc(OC)cc1)C(=O)C1CC(=O)N(Cc2ccccc2)C1 (stereo unspecified)
→ x, x, x, 2.0%, x, -107%[inhibitor], 2
- O=C(NC1CCCCC1)C1CC(=O)N(c2ccc(Cl)cc2)C1 (stereo unspecified)
→ 4%, x, -3.1, 2.3%, 3%, u, 0
- O=C(COC(=O)CCC(=O)c1ccc(Cl)cc1)NCC1CCCO1 (stereo unspecified)
→ 6%, -7, 0.3, 0.3%, 0%, 23%, -18
- Cc1c(C(=O)N2CCCc3ccccc32)oc2ccc(S(=O)(=O)N3CCOCC3)cc12
→ -12%, -13, 3.1, -0.5%, -13%, 24%, 2
- Cc1ccc(-c2cc(C(=O)NCc3cccs3)no2)cc1
→ 2%, 2, -1.9, -4.2%, 7%, -4%, -11
- C[C@H]1CN([C@@H](C)CO)C(=O)c2cc(C#CC3(O)CCCC3)cnc2O[C@H]1CN(C)C(=O)C1CC1
→ x, x, x, u, x, u, -1
- Cc1cc(C)c2cc(C#N)c(SCC(=O)Nc3ccc4c(c3)OCO4)nc2c1
→ -22%, -5, 8.3, -4.5%, 1%, u, 1
- CCOc1cccc(OCCOc2ccc(C(=O)c3ccccc3)cc2)c1
→ 1%, 5, 8.4, 0.7%, 0%, 19%, 1
- CCOc1cc(N2CCOCC2)c(OCC)cc1NC(=O)CN1C(=O)NC2(CCCCCCC2)C1=O
→ 0%, 11, 1.7, 1.4%, -17%, 3%, -7
- O=C(NCc1cccnc1)C(=O)Nc1nc(-c2ccccc2)cs1
→ 10%, 0, -0.4, x, -14%, 1%[15.4 µM], -8
- O=C(C[C@H]1C[C@@H]2c3cc(NS(=O)(=O)c4ccccc4)ccc3O[C@@H]2[C@H](CO)O1)NC1CCCC1
→ x, x, x, -1.6%, x, -12%, 7
- Cc1ccc(NC(=O)Cn2cccc2)c(C)c1
→ -1%, -10, 4.7, 3.7%, 22%, 13%, -18
- Cc1ccc(-c2nc(CSCC(=O)N3CCN(C(=O)c4ccco4)CC3)c(C)o2)cc1
→ -15%, 3, 2.5, -4.6%, -9%, -41%[inhibitor], 3
- CC(OC(=O)c1cc(=O)[nH]c2ccccc12)C(=O)NC1CCCCC1C (stereo unspecified)
→ x, 1, x, -23%, -1%, -12%, -1
- C/C(=N\S(=O)(=O)c1ccc(C)cc1)N(C)C
→ 6%, 7, 1.1, x, 5%, -3%[15.4 µM], -1
